# Bioassay records as filed in PubChem BioAssay.
# Mtb hypoxia rep: reduces hypoxia-regulated biosensor signal in M. tuberculosis. M. tuberculosis hypoxia-regulated fluorescent reporter, fluorescence. actives 0.1% (n = 300,000). fluorescence inhibition, % (concentration not given with the values). AID 1159583;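 active = 35 to 45% if threefold the growth effect, above 45% if 1.5-fold the growth effect; inactive = the rest, general growth blockers included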;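 also: wells of about 50 µL received 100 nL stock; 0% = vehicle wells and 100% = reference inhibitor wells; whole bacteria with a GFP reporter of the hypoxia response; strong numbers were not always called active; many hits fall short of the cut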
# BJeLR lethal: kills HRASV12-expressing BJeLR cells; actives 0.17% (n = 300,000); inhibition, % (no concentration beside the values); BJeLR (HRASV12) viability, CellTiter-Glo ATP luminescence, 48 h; reference of the scale not given here;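 active = replicate mean above 50%; inconclusive = above 50% but judged a plate artefact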;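 also: 50 nL library stock added to about 25 µL; numbers are from one replicate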
# RN4220 kill: S. aureus RN4220 growth inhibition | actives 0.33% (n = 330,000) | inhibition, % (test concentration not listed) | OD600, 16 h;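 active = z-score of -3 or lower and OD600 up to 0.18 on both plates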;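 also: plate controls were untreated cells for no effect and reference antibiotic for full effect; stock transfer was 100 nL into about 80 µL; one replicate is shown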
# Autofluor counter: flagged as autofluorescent in microsphere protease counterscreen | compound autofluorescence counterscreen, microsphere flow cytometry; stronger effect = higher value | fluorescence intensity (test concentration not listed) | actives 3.1% (n = 360,000);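 active = at least 3 SD above the mean of all compounds, about 16000 in these data; inconclusive = too few beads counted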;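 also: 100 nL of 1 mM stock went into each well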
# PrP 5UTR inh: suppresses PrP 5' UTR mRNA reporter expression | actives 0.35% (n = 340,000) | cell-based PrP 5' UTR mRNA reporter, plate reader | inhibition, % (no concentration beside the values);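 active = every replicate at 50% or more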;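 also: 0 = median of the neutral control wells; tested in H4 reporter cells; numbers are from one replicate; inactives centre near -14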
# ugtP null kill: compounds lethal to S. aureus RN4220 ugtP deletion mutant; OD600 growth, 16 h; some inactives read as strong as hits; growth inhibition, % (concentration not given with the values); actives 0.54% (n = 330,000); AID 1259309;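 active = z-score under -3 and OD600 up to 0.15 on both plates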;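 also: plate controls were untreated wells for no effect and antibiotic for full effect; wells of about 80 µL received 100 nL stock; the first replicate is given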
# Mtb hypoxia rep growth: also measured in Mtb hypoxia rep; calls as there; growth inhibition, %; measured here: M. tuberculosis growth (absorbance);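 0% = vehicle and 100% = reference antibiotic; read after six days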
# * = called active by the depositor; ? = inconclusive; · = not tested or not shown.
SMILES,Mtb hypoxia rep,Mtb hypoxia rep growth,BJeLR lethal,RN4220 kill,Autofluor counter,PrP 5UTR inh,ugtP null kill
Cc1cc(NC(=O)c2ccccc2)sc1C,·,·,17,-1.7,2771,-142,2
COc1ccc(C(=O)Cn2c(N3CCCCC3)nc3c2c(=O)n(C)c(=O)n3C)cc1OC,-1,-3,·,0.4,6127,-7,3
CCCOc1ccc(S(=O)(=O)NCc2ccc(OC)cc2)cc1,·,·,-5,3.1,4626,-14,-10
CCC(Oc1cc(Cl)ccc1Cl)C(=O)NN1C(=O)C2C3CCC(C3=C(C)C)C2C1=O (stereo not drawn),·,·,-6,-5.5,4726,-24,-4
O=C(Nc1cccc(OC(=O)N2CCCCC2)c1)N1CCCCC1,1,13,-6,3.1,2611,2,-8
CCc1ccc(OCC(=O)NNC(=O)C2CCN(c3ncnc4sc(C)c(C)c34)CC2)cc1,3,9,2,-5.0,5797,-38,-4
CC(=O)Oc1ccccc1C(=O)O,7,12,7,3.1,5938,-29,7
CCOC(=O)C1CCN(c2ccccc2CN2CCN(c3ccccc3OCC)CC2)CC1,1,-1,3,3.6,3766,-10,-5
CCN(CC)c1ccc(-n2c(O)c(C=C3N=c4ccccc4=N3)sc2=S)cc1,14,0,-2,-3.9,2189,-13,1
CCCOc1cc(N(CC)CC)ccc1/C=C(/C#N)c1nc2ccc(C)cc2[nH]1,·,·,-6,·,23823*,-5,·
COc1cc(C(=O)OCC(=O)NC2CC2)cc(OC)c1OC,5,9,·,3.8,5188,-10,3
C/C=C(\C)CN1CCC(Oc2cc(C(=O)NC3CC3)ccc2OC)CC1,-8,-4,-6,0.0,5873,-4,2
O=C(N/N=C/c1ccc(Cl)s1)c1ccccc1[N+](=O)[O-],·,·,-7,·,5885,-33,·
COc1ccc(CCNC(=O)C2CCN(S(=O)(=O)c3cnc[nH]3)CC2)cc1OC,·,·,5,4.9,4625,11,7
COC(=O)c1ccc(OCC(O)CN2CCC(C)CC2)cc1 (stereo not drawn),·,·,2,3.8,4664,12,9
CC(NC(=O)c1[nH]cnc1C(=O)Nc1ccc(CNC(=O)OC(C)(C)C)cc1)C(=O)OCc1ccccc1 (stereo not drawn),6,12,·,6.5,·,·,-11
O=C(COC(=O)COc1ccc(Cl)cc1Cl)NC1CCS(=O)(=O)C1 (stereo not drawn),-2,5,·,4.9,3764,-20,2
COc1cc(-c2noc(C)c2/C=C/c2ccc(N)cc2)cc(OC)c1OC,·,·,34,·,4063,50,·
COc1ccc(-n2c3c(cc(C(=O)N4CCC(C)CC4)c2=O)C(=O)CC(C)(C)C3)cc1,·,·,3,0.4,5417,-10,10
O=C(c1ccco1)N1N=C(c2ccco2)CC1c1ccc(Cl)cc1Cl (stereo not drawn),-8,9,·,8.5,4014,-13,-20
COc1ccc(NC(=S)Nc2cccc(S(=O)(=O)N3CCCCC3)c2)cc1,8,6,-10,4.7,8784,-18,-7
Cc1cc(C)nc(/N=C2\NC(=O)CC(C(=O)O)N2c2ccc(Cl)cc2Cl)n1 (stereo not drawn),1,-3,-13,4.7,4449,-14,1
N#CC1=C(N)Oc2n[nH]c(-c3cccs3)c2C1C1C=CCCC1 (stereo not drawn),8,5,-1,4.7,2927,-8,-31
CCCCC/C(=N\NC(=O)Nc1ccccc1)c1ccccc1,·,·,-1,·,3549,-20,·
COc1cccc(-c2c(C(=O)N/N=C/C3CC=CCC3)nnn2-c2nonc2N)c1 (stereo not drawn),·,·,2,·,4497,6,·
Cc1ccsc1C(=O)N1CCCC(N(C)Cc2ccccc2)C1 (stereo not drawn),·,·,2,·,?,-24,·
O=C(Nc1ccc(S(=O)(=O)N2CCC(C(=O)NC3CCCCC3)CC2)cc1)c1ccco1,8,19,8,2.6,3849,-9,-2
N[C@@H](Cc1ccc(O)cc1)c1nnc([C@H](CC(=O)O)NC(=O)C2CCNCC2)o1,·,·,-2,·,2959,-18,·
CCOc1ccccc1CNC(=O)Cn1ccc2cc(S(=O)(=O)N3CCCCCC3)ccc21,2,-6,-1,-8.5,6429,-15,1
CCn1c(=S)sc2c(=O)n(-c3ccccc3)c(=S)[nH]c21,-7,1,9,11,2881,-15,4
O=C(CN1C(=O)NC2(CCCc3ccccc32)C1=O)N1CCc2ccccc2C1 (stereo not drawn),16,4,3,-13,2440,-15,-9
COc1ccc(C(=O)OCc2nc(N)nc(Nc3ccccc3C)n2)cc1OC,-8,1,2,1.6,3108,-6,1
CON=CCC(=O)Nc1ccc(Cl)c(Cl)c1,1,10,·,-0.5,·,·,-15
CC(C)(C)c1ccc(Oc2ccc(N)cc2)cc1,12,7,-4,16,9009,65*,38
CC(C)C(=O)Nc1ccc(C(=O)Nc2nnc(C(C)C)s2)cc1,22,7,6,1.2,4326,-26,9
CCCCn1c(SCC(=O)N(C)C2CCS(=O)(=O)C2)nc2cc(S(N)(=O)=O)ccc21 (stereo not drawn),15,-5,-9,1.0,4318,-15,1
CCN(CC)CCNc1ccnc2cc(Cl)ccc12,8,8,-6,0.7,20811*,1,3
O=C(Nc1nnc(C2CC2)s1)c1cc([N+](=O)[O-])ccc1N1CCCCC1,-3,-1,21,89*,2717,-12,77
COc1ccc(CC(=O)NN=C(C)CC(=O)Nc2ccc3c(c2)OCCO3)cc1OC,12,3,·,7.1,·,·,9
O=C(NCC(c1ccco1)N1CCOCC1)c1ccccc1 (stereo not drawn),-5,3,2,1.6,6296,1,4
Cc1ccccc1CCN(CC(=O)NC1CCCCC1)C(=O)c1csnn1,6,10,-2,4.4,4282,-30,3
COCc1ccc(CN2CCCC(C(=O)Nc3ccc(-c4cscn4)cc3)C2)o1 (stereo not drawn),10,-2,7,1.5,5760,-24,4
CCC(=O)Nc1nc(OC)cc(OC)n1,-1,4,-2,8.0,2447,-10,8
COc1cccc(NC(=S)N2CCN(c3ccc([N+](=O)[O-])cc3)CC2)c1,3,0,-6,2.4,2967,-2,-2
COc1ccc(CCNC(=O)CSc2ccc(NC(C)=O)cc2)cc1OC,4,3,-4,0.1,6138,-20,-8

# Three entries already listed, arranged by number of heavy atoms, ascending:
SMILES,Mtb hypoxia rep,Mtb hypoxia rep growth,BJeLR lethal,RN4220 kill,Autofluor counter,PrP 5UTR inh,ugtP null kill
CC(C)(C)c1ccc(Oc2ccc(N)cc2)cc1,12,7,-4,16,9009,65*,38
CC(C)C(=O)Nc1ccc(C(=O)Nc2nnc(C(C)C)s2)cc1,22,7,6,1.2,4326,-26,9
COCc1ccc(CN2CCCC(C(=O)Nc3ccc(-c4cscn4)cc3)C2)o1 (stereo not drawn),10,-2,7,1.5,5760,-24,4

# The list goes on.
SMILES,Mtb hypoxia rep,Mtb hypoxia rep growth,BJeLR lethal,RN4220 kill,Autofluor counter,PrP 5UTR inh,ugtP null kill
CC1CCN(S(=O)(=O)c2ccc(NC(=O)Cn3nnc(-c4ccccc4F)n3)cc2)CC1,1,-3,-7,-5.1,6906,-19,-5
CCn1nc(NC(=O)CC(C)C)c2cc3cccc(C)c3nc21,10,4,1,-2.7,3794,-3,-17
COC(=O)C(O)(CC(=O)c1ccc(OC)cc1)C(F)(F)F (stereo not drawn),10,4,-8,4.2,6130,-19,4
CCN(CC)c1ccc(C(=O)NN)cc1,9,12,-4,13,4552,-18,8
CCn1c(CNc2ccc(C)cc2)nnc1SCC(=O)NCc1ccccc1,-16,-1,·,-1.9,11359,-6,-6
CCOC(=O)c1c(C(F)(F)C(F)(F)C(F)(F)C(F)(F)F)n[nH]c1C,-6,1,-1,-3.2,3889,-19,6
CC(C)OCCCNC(=O)c1cccc(NC(=O)c2ccccc2)c1,-2,7,-13,-3.5,8825,-15,-2
O=S(=O)(NC1CC2CCC1C2)c1ccc(Br)cc1 (stereo not drawn),-6,-11,-11,-2.2,3799,-1,-6
COc1ccc(C2=NN(C3=NN=C(N)Cc4ncnn43)C(O)(C(F)(F)F)C2)cc1 (stereo not drawn),2,-2,4,3.1,3634,-85,11
O=C(O)c1ccccc1C(=O)N(Cc1ccccc1)Cc1ccccc1,-4,1,-11,13,4266,-7,-5
CCOC(=O)CCn1nc(-c2ccc(C)cc2)c2ccccc2c1=O,12,14,·,11,4677,-18,8
CC(=O)Nc1ccc(S(=O)(=O)N2CCN(S(=O)(=O)N3CCCCC3)CC2)cc1,14,4,-5,0.7,4549,1,-1
COc1ccc(NC(=O)CCCC(=O)c2ccccc2)c(OC)c1,13,3,-1,1.4,3183,-57,-1
Cc1nc2ccccn2c1C(=O)Nc1ccc2c(c1)OCCO2,-6,0,-18,-0.9,8636,-10,-1
CCC1CCCC1=NNC(=O)c1cc(C)[nH]n1 (stereo not drawn),2,1,·,5.2,·,·,5

# The final 5 compounds of the section above open the next one.
SMILES,Mtb hypoxia rep,Mtb hypoxia rep growth,BJeLR lethal,RN4220 kill,Autofluor counter,PrP 5UTR inh,ugtP null kill
CCOC(=O)CCn1nc(-c2ccc(C)cc2)c2ccccc2c1=O,12,14,·,11,4677,-18,8
CC(=O)Nc1ccc(S(=O)(=O)N2CCN(S(=O)(=O)N3CCCCC3)CC2)cc1,14,4,-5,0.7,4549,1,-1
COc1ccc(NC(=O)CCCC(=O)c2ccccc2)c(OC)c1,13,3,-1,1.4,3183,-57,-1
Cc1nc2ccccn2c1C(=O)Nc1ccc2c(c1)OCCO2,-6,0,-18,-0.9,8636,-10,-1
CCC1CCCC1=NNC(=O)c1cc(C)[nH]n1 (stereo not drawn),2,1,·,5.2,·,·,5
Cn1cc2c(=O)n(N=Cc3ccccc3)cnc2n1,1,10,·,0.0,·,·,6
O=C1CC(Nc2ccc(N3CCOCC3)cc2)C(=O)N1c1ccccc1 (stereo not drawn),11,7,1,4.6,5502,-17,9
CCN(CC)S(=O)(=O)c1ccc(-n2cnnn2)c(C)c1,-5,-8,-12,6.8,8194,-22,-1
O=C(Nc1ccccc1)NC1(C(=O)NCCCN2CCOCC2)CCCCC1,·,·,·,2.6,4753,-67,6
CCc1ccc2[nH]c(C(=O)Nc3ccc(Br)c(C)n3)cc2c1,-16,6,21,6.9,3638,-51,-1
COc1ccc(CNC(=S)Nc2ccccc2)cc1Cl,-5,-8,2,3.8,3092,4,-3
CC1Cc2ccccc2N1C(=O)CSc1ncccc1C(=O)O (stereo not drawn),8,12,4,3.5,5370,-2,1
NS(=O)(=O)c1ccc(NC(=O)/C=C/c2ccc(S(=O)(=O)NCc3ccco3)cc2)cc1,2,4,0,-2.9,4532,-7,-3
Cc1ccc(Oc2ccc(NS(=O)(=O)c3cccc(C(=O)O)c3)cc2)cc1,10,5,·,-6.5,3148,-2,29
O=C(NCc1ccccc1)N1CCOc2ccccc21,-7,-2,2,-3.7,3900,-18,-5
Cc1[nH]c(=O)[nH]c(=O)c1C=NNC(=O)C(C)NC(=O)OC(C)(C)C (stereo not drawn),11,8,·,6.2,·,·,0
Cc1ccc(NCc2n[nH]c(=S)n2-c2ccccc2)cc1,2,1,-11,-2.8,2557,-19,-7
CN(CC(=O)Nc1ccc(OC(F)(F)F)cc1)C(=O)C1CCC1,8,12,·,-1.0,8776,-5,2
Nc1ccc2nc(-c3cccc(-c4nc5ccc(N)cc5[nH]4)n3)[nH]c2c1,7,1,2,-2.6,2947,-23,-5
CCCCNC(=S)Nc1ccc(F)cc1,5,-2,-16,-0.6,5648,-11,1
CC1CN(C(=O)c2cc(Br)c(Br)s2)CC(C)O1 (stereo not drawn),16,16,·,4.3,7929,-4,4
O=C(Cc1cccc2ccccc12)N/N=C1\CCCc2ccccc21,·,·,6,·,3998,-19,·
CCCCOc1ccc(C(=O)NCc2ccco2)cc1,19,6,-6,2.9,3073,-26,16
COc1ccc(OC)c(C2C(C(=O)c3sc(C)nc3C)=C(O)C(=O)N2CCN2CCOCC2)c1 (stereo not drawn),·,·,-11,-0.6,2627,-28,-2
c1ccc(CNc2ccc3c(c2)ncn3C2CCCCC2)nc1,2,3,-2,6.7,9308,-32,-4
CCCn1c(SCC(=O)Nc2nonc2C)nnc1-c1ccoc1C,·,·,2,3.6,4775,-15,8
CSc1nc2ccc(NC(=O)C3=NNC(=O)CC3)cc2s1,9,11,2,-0.3,4568,-19,7
O=C(c1ccc(Cl)cc1)C1CCCN(Cc2ccc3ncccc3c2)C1 (stereo not drawn),4,5,9,7.6,5489,-19,0
COc1ccc(C2/C=C\CN(S(=O)(=O)c3ccc(C)cc3)CC(=O)N2Cc2ccc(F)cc2)cc1 (stereo not drawn),·,·,3,·,4105,-29,·
CCN(CC)CCOC(=O)/C=C/c1ccccc1OC,6,11,10,2.9,2063,-34,3
Cc1cc(Br)cc2c1NC(=O)C2(c1c(C)n(C)n(-c2ccccc2)c1=O)c1c(C)n(C)n(-c2ccccc2)c1=O,9,7,1,7.7,3996,-22,1
